YB-1 expression: YB-1 expression inhibition; U2OS, qRT-PCR YB-1 vs CDIP delta delta Cp, 16 h; hits give high values; zero = DMSO, each unit about twofold; delta delta Cp (YB-1 minus CDIP) (concentration not given with the values); 0.37% of 30,000 active; AID 434959;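 active = delta delta Cp rounded down to an integer at or above 3, about 3 SD of DMSO wells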;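 note: higher means less YB-1 transcript or more CDIP transcript relative to DMSO; stock transfer was 100 nL into about 100 µL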
MITF inhib: MITF inhibition; TRPM1 promoter luciferase, luminescence, 24 h; inhibition, % (test concentration not listed); 0.28% of 37,000 active; AID 2240;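 active = most replicates at 85% or more, or half of them and the mean; inconclusive = half reach 85% but not the mean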;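 note: human melanocyte line stably carrying TRPM1 promoter luciferase reporter; 0% = vehicle wells and 100% = a positive control; the first replicate is given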
Hedgehog inh: Sonic Hedgehog pathway inhibition. 2.1% of 22,000 active. Shh-LIGHT2 Gli-luciferase reporter, 30 h. inhibition, % (no concentration beside the values);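 active = replicate mean of 65% or more; inconclusive = mean lower but half the replicates past it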;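 note: pathway switched on by Shh-conditioned medium diluted 1 in 25 in low serum; 100 nL library stock added to about 40 µL; 0% = median of neutral wells and 100% = positive control level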
PD-1 reversal: reversal of PD-1 mediated T-cell inhibition. AID 2316. 29,000 tested, under 10 active. primary human CD4 T cells, PD-L1 beads, CellTiter-Glo 96 h. activation, % (no concentration beside the values);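 active = replicate mean of 50% or more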;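 note: 0% = median vehicle wells and 100% = positive control; 100 nL library stock added to about 50 µL; numbers are from one replicate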
Starred values were filed as active, the others as inactive; ? = inconclusive; · = no result given; & = joins results of further samples. A portion of the library; the hit share may differ from the screen's.

SMILES	YB-1 expression	MITF inhib	Hedgehog inh	PD-1 reversal
C[C@@H]1CN([C@H](C)CO)C(=O)c2cccc(NC(=O)c3nc4ccccc4s3)c2O[C@H]1CN(C)S(=O)(=O)c1cn(C)cn1	0.0118	2.4	10.5	·
C[C@@H]1CN([C@H](C)CO)C(=O)Cc2cc(NC(=O)Nc3cccc4ccccc34)ccc2O[C@H]1CN(C)S(=O)(=O)c1ccccc1	-0.105	-1.5	-53.6	0.1
Cc1c(C)c(C)c(S(=O)(=O)N=C(N)N)c(C)c1C	0.145	-1.1	-16.7	-0.5
Cc1noc(C)c1S(=O)(=O)N(C)C[C@H]1Oc2ccc(NC(=O)CCCCCC(=O)Nc3ccccc3N)cc2CC(=O)N([C@@H](C)CO)C[C@@H]1C	-1	5.5	·	-0.9
C[C@H](CO)N1C[C@H](C)[C@@H](CN(C)C(=O)Nc2ccccc2)Oc2c(NC(=O)C3CCOCC3)cccc2C1=O	0.614	-0.8	-21.9	2.5
C[C@H]1CN([C@@H](C)CO)C(=O)c2cccc(NS(=O)(=O)c3cccs3)c2O[C@@H]1CN(C)S(=O)(=O)c1cn(C)cn1	0.0174	-7.6	-8.3	4.4
C[C@@H]1CN([C@@H](C)CO)C(=O)c2cc(NC(=O)CCN3CCOCC3)ccc2O[C@@H]1CN(C)S(C)(=O)=O	0.225	-10.1	-2.5	0.9
Cn1c(=O)c2c(nc(SCC(=O)NC(C)(C)C)n2Cc2ccccc2F)n(C)c1=O	·	-4.8	·	0.5
Cc1ccc(S(=O)(=O)Nc2ccc3c(c2)CC(=O)N([C@@H](C)CO)C[C@@H](C)[C@@H](CN(C)C(=O)Nc2ccccc2)O3)cc1	-0.0342	26.9	-38.4	0.5
O=C(CC1C(=O)NCCN1C(=O)Nc1ccccc1)Nc1cccc(C(F)(F)F)c1 (stereo not drawn)	·	-29.6	·	0.6
COc1cc(C)c(C)cc1S(=O)(=O)N1CCCCC1c1cccnc1 (stereo not drawn)	·	1.2	·	-2.0
Cc1noc(C)c1S(=O)(=O)Nc1ccc2c(c1)C(=O)N([C@H](C)CO)C[C@H](C)[C@@H](CN(C)Cc1ccc(C(F)(F)F)cc1)OCCCC[C@@H](C)O2	0.295	8.1	25.5	·
CC(C)NC(=O)Nc1ccc2c(c1)CC(=O)N([C@@H](C)CO)C[C@H](C)[C@@H](CN(C)Cc1ccc(C(F)(F)F)cc1)O2	0.292	-32.6	-14.2	1.0
C[C@@H]1CN([C@H](C)CO)C(=O)Cc2cc(NC(=O)Nc3ccccc3)ccc2O[C@H]1CN(C)Cc1ccc2c(c1)OCO2	-0.0464	-6.7	-48.5	0.0
COc1ccccc1-n1c(SCC(=O)c2ccc(Cl)cc2)nc2ccccc2c1=O	·	27.0	·	-1.3
O[C@H]1C=C2CCN3Cc4cc5c(cc4C(C23)[C@@H]1O)OCO5 (stereo partly drawn)	·	62.6	99.1*	·
COC(=O)COc1cccc(NC(=O)c2cc(OC)cc(OC)c2)c1	·	-8.0	·	-0.2
C[C@H](CO)N1C[C@H](C)[C@H](CN(C)Cc2ccccc2)Oc2c(NC(=O)C3CCCCC3)cccc2C1=O	-0.252	8.6	13.7	-0.2
C[C@H]1CN([C@@H](C)CO)C(=O)c2cc(NC(=O)Cn3cnnn3)ccc2O[C@@H]1CN(C)S(=O)(=O)c1cn(C)cn1	0.331	-2.3	-0.9	0.8
C[C@H](CO)N1C[C@H](C)[C@H](CN(C)C(=O)Nc2ccc3c(c2)OCO3)Oc2ccc(NC(=O)Cc3cn(C)c4ccccc34)cc2C1=O	0.239	23.2	·	-2.0
C[C@@H]1CN([C@@H](C)CO)C(=O)c2cccc(NC(=O)C3CCCCC3)c2O[C@H]1CN(C)S(=O)(=O)c1cccs1	-0.179	3.9	12.3	-0.5
O=C(NCc1ccccn1)C(=O)Nc1cccc(Cl)c1Cl	·	-14.6	·	2.3
C[C@@H]1CN([C@H](C)CO)C(=O)c2cc(NS(=O)(=O)c3cccs3)ccc2O[C@H]1CN(C)Cc1ccc(-c2ccccc2)cc1	0.193	-2.9	·	·
NC(=O)C1(N2CCCCC2)CCN(CC(=O)Nc2ccc(Cl)cc2)CC1	·	1.5	·	1.3
Cc1ccc(S(=O)(=O)N(C)C[C@H]2Oc3c(NC(=O)c4cnccn4)cccc3C(=O)N([C@H](C)CO)C[C@@H]2C)cc1	0.571	0.7	32.7	1.9
CC(=O)OCC(Cc1ccccc1)NC(=O)C(Cc1ccccc1)NC(=O)c1ccccc1 (stereo not drawn)	-0.364	8.2	-8.4	-3.0
C[C@H]1CN([C@@H](C)CO)C(=O)c2cccc(NC(=O)NC3CCCCC3)c2O[C@@H]1CN(C)Cc1ccc(C(F)(F)F)cc1	-0.179	26.7	1.6	-1.3
COC(=O)CNC(c1ccccc1)c1cc(Br)ccc1N=Cc1ccccc1O (stereo not drawn)	-0.393	-9.8	·	-0.8
C[C@@H]1CN([C@H](C)CO)C(=O)c2cccc(NS(=O)(=O)c3ccc(F)cc3)c2O[C@@H]1CN(C)S(=O)(=O)c1cccs1	0.165	1.0	-40.9	-0.8
CC(Sc1ncnc2sc3c(c12)CCCC3)C(=O)Nc1cc(C(F)(F)F)ccc1Cl (stereo not drawn)	·	-3.0	·	5.4
C[C@H]1CN([C@@H](C)CO)C(=O)c2cccc(NC(=O)C3CCCCC3)c2O[C@H]1CN(C)C(=O)NC1CCCCC1	-0.141	-5.9	-41.4	·
C[C@@H]1CN([C@H](C)CO)C(=O)c2cc(NC(=O)Nc3ccc(C(F)(F)F)cc3)ccc2O[C@H]1CN(C)Cc1ccncc1	-0.196	-11.3	·	-1.7
COc1ccc(N(CC(=O)Nc2ccc(C)cc2C)S(C)(=O)=O)cc1	·	3.4	·	1.4
COC(=O)c1cccc(NC(=O)COc2cc(C)ccc2C)c1	·	16.2	·	0.7
C[C@@H]1CN([C@H](C)CO)C(=O)Cc2cc(NS(=O)(=O)c3cn(C)cn3)ccc2O[C@@H]1CN(C)CC1CCCCC1	-0.0397	-2.2	·	0.9
COc1ccc(CN(C)C[C@@H]2Oc3c(NS(=O)(=O)c4cn(C)cn4)cccc3C(=O)N([C@H](C)CO)C[C@@H]2C)cc1	0.0858	-2.7	-82.5	·
O=C(CSc1nc2ccccc2c(=O)n1-c1ccc(Cl)cc1)Nc1cccc(Cl)c1	·	8.2	·	-0.5
COc1ccc(S(=O)(=O)N(C)C[C@H]2Oc3ccc(NC(=O)NC(C)C)cc3C(=O)N([C@H](C)CO)C[C@@H]2C)cc1	-0.0279	-5.0	-30.8	·
Cc1noc(C)c1NC(=O)Nc1ccc2c(c1)CC(=O)N([C@@H](C)CO)C[C@H](C)[C@H](CN(C)S(=O)(=O)c1ccc(Cl)cc1)O2	-0.0753	-5.3	-1.2	·
C[C@H]1CN([C@@H](C)CO)C(=O)c2cc(NC(=O)Nc3ccccc3)ccc2O[C@H]1CN(C)Cc1ccc2c(c1)OCO2	-0.455	-11.1	·	5.8
Cc1ccc(S(=O)(=O)Nc2cccc3c2O[C@@H](CN(C)Cc2ccncc2)[C@@H](C)CN([C@H](C)CO)C3=O)cc1	-0.249	-3.6	1.6	1.3
Cc1cc(C)c(S(=O)(=O)N(CC(=O)Nc2ccc(C(N)=O)cc2)C2CCCCC2)c(C)c1	·	7.3	·	0.3
C[C@H]1CN([C@@H](C)CO)C(=O)Cc2cc(NC(=O)c3ccncc3)ccc2O[C@H]1CN(C)Cc1ccccc1	0.0713	-6.5	-20.7	1.2
C[C@H](CO)N1C[C@H](C)[C@@H](CN(C)C(=O)Nc2ccc(F)cc2)Oc2ccc(N(C)C)cc2C1=O	0.178	2.8	3.8	·
C[C@H](CO)N1C[C@H](C)[C@@H](CN(C)C(=O)Nc2ccc3c(c2)OCO3)Oc2ccc(NC(=O)Nc3ccc(C(F)(F)F)cc3)cc2C1=O	-0.453	9.4	-8.3	-2.8
COc1ccc(NC(=O)N(C)C[C@@H]2Oc3ccc(NC(=O)C4CCCCC4)cc3C(=O)N([C@H](C)CO)C[C@@H]2C)cc1	-0.516	1.4	·	1.9
C[C@H](CO)N1C[C@H](C)[C@H](CN(C)Cc2ccc(C(F)(F)F)cc2)Oc2c(NC(=O)C3CC3)cccc2C1=O	-0.251	-2.2	1.9	-0.5
C[C@H]1CN([C@@H](C)CO)C(=O)Cc2cc(NC(=O)c3ccncc3)ccc2O[C@@H]1CN(C)C(=O)Nc1ccc2c(c1)OCO2	-0.0102	-23.9	-10.4	0.7
NC(=O)CCCCC1CCSS1 (stereo not drawn)	-0.0774	-0.7	-41.7	-1.1
O=C(COc1ccccc1[N+](=O)[O-])Nc1ccccc1N1CCOCC1	·	31.7	·	0.9
C[C@H]1CN([C@@H](C)CO)C(=O)c2cc(NC(=O)Cc3cn(C)c4ccccc34)ccc2O[C@H]1CN(C)S(=O)(=O)c1cn(C)cn1	-0.834	-2.4	·	2.3
C[C@H]1CN([C@@H](C)CO)C(=O)c2cccc(NC(=O)c3nc4ccccc4s3)c2O[C@@H]1CN(C)S(=O)(=O)c1ccccc1	0.251	-3.9	?	-3.3
Cc1ccc(S(=O)(=O)Nc2ccc3c(c2)C(=O)N([C@H](C)CO)C[C@H](C)[C@H](CN(C)C(=O)Nc2ccccc2)OCCCC[C@@H](C)O3)cc1	0.385	2.0	0.5	-0.5
CNC[C@H]1Oc2ccc(NC(=O)Nc3ccc(OC)cc3)cc2C(=O)N([C@@H](C)CO)C[C@H]1C	0.0341	-9.5	·	·
O=C(Oc1ccccc1)c1cccc(COC(=O)c2cnccn2)c1	·	-49.6	·	2.9
C[C@H]1CN([C@@H](C)CO)C(=O)c2cccc(NC(=O)c3ccc(-c4nccs4)cc3)c2O[C@@H]1CN(C)C(=O)Nc1ccc(C(F)(F)F)cc1	-0.202	-0.4	-12.4	1.3
Cc1noc(C)c1S(=O)(=O)Nc1ccc2c(c1)C(=O)N([C@@H](C)CO)C[C@H](C)[C@H](CN(C)Cc1ccc3c(c1)OCO3)O2	-0.054	8.5	-5.9	0.3
C[C@H](CO)N1C[C@H](C)[C@H](CN(C)Cc2ccc(C(F)(F)F)cc2)Oc2ccc(NS(=O)(=O)c3ccc(Cl)cc3)cc2C1=O	-0.282	11.5	·	-3.3
Cc1cc(C)nc(NS(=O)(=O)c2ccc(N)cc2)n1	-0.0617&-0.0423	6.0&11.6	2.2&-28.0	·
O=C(Cn1c(NCCCO)nc2ccccc21)c1ccc(Cl)c(Cl)c1	·	8.3	·	-2.2

Continuation:
SMILES	YB-1 expression	MITF inhib	Hedgehog inh	PD-1 reversal
C[C@H](CO)N1C[C@H](C)[C@H](CN(C)S(=O)(=O)c2ccc(Cl)cc2)Oc2ccc(N(C)C)cc2CC1=O	-0.0528	-1.0	10.6	3.7
C[C@@H]1CN([C@@H](C)CO)C(=O)c2cc(NC(=O)NC3CCCCC3)ccc2O[C@H]1CN(C)S(C)(=O)=O	0.175	0.9	15.3	·
COc1ccc(-c2nc(N(C)c3ccccc3)[nH]c(=O)c2C#N)cc1	0.0397	-7.1	-4.7	-0.6
Cc1noc(C)c1NC(=O)Nc1ccc2c(c1)C(=O)N([C@@H](C)CO)C[C@@H](C)[C@@H](CN(C)S(=O)(=O)c1ccccc1)O2	-0.00969	-6.0	-25.7	0.7
C[C@@H]1CN([C@@H](C)CO)C(=O)c2cccc(NC(=O)c3ccc(-c4nccs4)cc3)c2O[C@@H]1CN(C)C(=O)Nc1cccc2ccccc12	-0.156	4.7	66.0*	-1.0
C[C@@H]1CCCCO[C@H](CN(C)C(=O)c2ccncc2)[C@@H](C)CN([C@H](C)CO)C(=O)c2cc(NS(=O)(=O)c3ccc(Cl)cc3)ccc2O1	0.194	-6.1	17.9	1.0
CS(=O)(=O)N1N=C(c2ccc(Br)cc2)CC1c1cc2ccccc2nc1Cl (stereo not drawn)	-0.239	20.3	19.6	-0.1
C[C@@H]1CN([C@H](C)CO)C(=O)c2cc(NC(=O)Cc3ccccc3)ccc2O[C@@H]1CN(C)Cc1ccccc1	-0.0733	-3.7	·	0.2
COC(NC(=O)c1ccccc1)(C(F)(F)F)C(F)(F)F	0.252	-7.4	-45.7	1.3
CNC[C@H]1Oc2c(NC(=O)C3CCOCC3)cccc2C(=O)N([C@H](C)CO)C[C@@H]1C	-0.201	-5.6	-111.3	2.4
COC(=O)c1scc(S(=O)(=O)C(C)(C)C)c1-n1cccc1	-0.266	3.3	·	-0.1
O=C(c1ccco1)N(Cc1ccco1)c1ccc(O)cc1	·	0.2	·	0.0
